RecA splice inh = inhibitors of M. tuberculosis RecA intein splicing | P9WHJ3 | AID 2221 | inhibition, %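 (about 9 µM by stock and volumes)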 | actives 0.75% (n = 290,000) | cell-free RecA intein splicing, fluorescence; in the data active = inhibition above about 30%;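 note: 0% = vehicle wells and 100% = reference inhibitor control wells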
Target sequence (P9WHJ3 whole entry, looked up, canonical isoform): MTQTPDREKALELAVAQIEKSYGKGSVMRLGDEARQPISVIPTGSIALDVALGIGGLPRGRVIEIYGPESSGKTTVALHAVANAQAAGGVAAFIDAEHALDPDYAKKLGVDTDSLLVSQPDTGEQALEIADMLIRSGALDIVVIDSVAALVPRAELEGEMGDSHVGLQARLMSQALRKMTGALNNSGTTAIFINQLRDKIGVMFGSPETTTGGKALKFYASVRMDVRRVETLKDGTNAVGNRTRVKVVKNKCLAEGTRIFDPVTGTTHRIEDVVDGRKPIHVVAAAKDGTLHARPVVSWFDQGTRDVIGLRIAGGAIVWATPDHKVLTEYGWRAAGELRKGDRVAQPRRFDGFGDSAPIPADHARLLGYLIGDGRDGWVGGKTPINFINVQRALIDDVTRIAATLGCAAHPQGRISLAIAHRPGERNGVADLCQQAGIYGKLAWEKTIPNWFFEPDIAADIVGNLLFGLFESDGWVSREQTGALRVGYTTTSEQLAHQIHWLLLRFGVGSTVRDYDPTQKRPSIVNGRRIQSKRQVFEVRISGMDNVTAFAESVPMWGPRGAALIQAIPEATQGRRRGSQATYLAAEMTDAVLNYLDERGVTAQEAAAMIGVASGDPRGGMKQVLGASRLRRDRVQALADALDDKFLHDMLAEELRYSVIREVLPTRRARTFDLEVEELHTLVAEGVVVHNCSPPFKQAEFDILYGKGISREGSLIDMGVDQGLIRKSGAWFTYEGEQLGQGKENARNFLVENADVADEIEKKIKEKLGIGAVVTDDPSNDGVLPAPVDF
Mtb growth = M. tuberculosis H37Rv growth inhibitors, H37Rv strain (AID 1626); one-dose inhibition, % at 10 µM; IC50 in µM for titrated hits; actives 0.95% (n = 220,000); M. tuberculosis H37Rv growth inhibition; higher % means a stronger effect;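 active = confirmed in a dose series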;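 note: bacteria incubated seven days before Alamar blue readout; 0% = bacteria only wells and 100% = bacteria with antibiotic wells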
YopH inh = inhibitors of Yersinia enterocolitica YopH tyrosine phosphatase. fluorescence Ex485/Em525. inhibition, %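 (about 10 µM by stock and volumes)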. actives 0.16% (n = 140,000). AID 898;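 active = inhibition of 50% or more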;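 note: controls were vehicle for no effect and minimum signal wells for full effect; inactives centre near -20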
Arbovirus anti = antivirals against arbovirus infection; arbovirus infection cell-based antiviral screen; inhibition, % at 10 µM; actives 0.37% (n = 200,000); AID 1251;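 active = inhibition from about 30%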;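 note: bluetongue infection of BSR cells; cell survival read as ATP light after 72 h; 0% = infected wells without compound and 100% = uninfected wells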
Mtb bLac sens = beta-lactam sensitization of Mtb H37Rv; inhibition, % at 25 µM; actives 0.27% (n = 330,000); M. tuberculosis H37Rv growth with meropenem, percent inhibition; hits of this screen are not shown here; AID 434955;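 active = about 74% or more and at least 40 points above the plate without the antibiotic, then above 30% in a dose series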;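 note: growth measured after seven days incubation then overnight dye step; 0% = bacteria only wells and 100% = bacteria with antibiotic; twin plates without the antibiotic show which effects depend on it; some results filed as inactive read as strong as hits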
An asterisk follows results filed as active; & = joins results of further samples. Only part of the results is shown, so the mix of outcomes need not match the whole.

O=C(Cc1ccc(Cl)c(Cl)c1)Nc1ccc(SC(F)F)cc1 was read as RecA splice inh 3.8, Mtb growth 49%, YopH inh -8, Arbovirus anti -8 and Mtb bLac sens 9.
Screening OCCN1CCN(C(=S)Nc2cccc(C(F)(F)F)c2)CC1 returned RecA splice inh -1.9, Mtb growth 6% and Mtb bLac sens 4.
O=C(Cn1cccc1C(=O)c1ccccc1)NCCC1=CCCCC1 was read as RecA splice inh -0.1, Mtb growth 7%, Arbovirus anti -2 and Mtb bLac sens 10.
Screening CC1CC(C)CN(CCC(=O)Nc2cccc(Cl)c2)C1 (stereo unspecified) returned RecA splice inh -0.7, Mtb growth -1%, YopH inh -7, Arbovirus anti 10 and Mtb bLac sens 95.
`CN(C)S(=O)(=O)c1cc(NC(=O)COC(=O)Cc2cccc3ccccc23)ccc1Cl` gave RecA splice inh 0.0, Mtb growth -1%, YopH inh -27, Arbovirus anti 4 and Mtb bLac sens 2.
Screening O=S(=O)(Nc1ccccc1O)c1ccc(-c2ccccc2)cc1 returned RecA splice inh 10, Mtb growth 0%, Arbovirus anti -18 and Mtb bLac sens 0.
For O=C(Nc1nncs1)C1CC(=O)N(CCc2ccc(F)cc2)C1 (stereo unspecified) the results were RecA splice inh 0.4 and Mtb bLac sens 0.
CC1CCCC(NC(=O)C2c3ccccc3C(=O)N2Cc2cccs2)C1C (stereo unspecified) was read as RecA splice inh 2.7, Mtb growth 4%, YopH inh -9, Arbovirus anti -13 and Mtb bLac sens -2.
Screening CCCCOC(=O)/C=C/c1ccc(OC(=O)OC)c(OC(=O)OC)c1 returned RecA splice inh 1.0, Mtb growth -1%, YopH inh -27, Arbovirus anti -4 and Mtb bLac sens 7.
Cc1ccc(-c2c3c(=O)n(C)c(=O)n(C)c3cn2N2CCOCC2)cc1 was read as RecA splice inh -0.3, Mtb growth 2%, YopH inh -43, Arbovirus anti -3 and Mtb bLac sens -10.
Screening CCC1(c2ccc(F)cc2)NC(=O)N(CC(=O)Nc2ccccc2C)C1=O (stereo unspecified) returned RecA splice inh -2.6 and Mtb bLac sens 3.
Screening CC(Oc1cccc(Cl)c1)C(=O)Nc1cc(Cl)ccc1N1CCOCC1 (stereo unspecified) returned RecA splice inh 21 and Mtb bLac sens 0.
For Cc1ccc(OCCCC(=O)Nc2ccc(S(=O)(=O)Nc3cc(C)nc(C)n3)cc2)cc1 the results were RecA splice inh -0.4 and Mtb bLac sens 1.
Cc1ccc(OCC(=O)Nc2ccc(S(=O)(=O)Nc3onc(C)c3C)cc2)cc1 was read as RecA splice inh 4.1, Mtb growth 0%, YopH inh -48, Arbovirus anti 4 and Mtb bLac sens 7.
Screening COc1ccc(-c2ccc3nnc(SCC(=O)Nc4ccc(NC(C)=O)cc4)n3n2)cc1 returned RecA splice inh -0.2 and Mtb bLac sens 12.
Screening Clc1ccc2c(c1)nc1n2CCCC1 returned RecA splice inh 0.0, Mtb growth 7% and Mtb bLac sens 0.
Cc1cc(C)n(C(=O)/C(C#N)=N/Nc2cc(Cl)cc(Cl)c2)n1 was read as RecA splice inh 12, Mtb growth 15%, Arbovirus anti -30 and Mtb bLac sens 8.
Screening CCOc1ccc(-c2nnc(SCC(=O)O)n2Cc2ccccc2)cc1 returned RecA splice inh -1.0 and Mtb bLac sens -2.
Screening Cc1cccc(C)c1NC(=O)CNc1ccccc1 returned RecA splice inh -11, Mtb growth 0%, YopH inh 8, Arbovirus anti -3 and Mtb bLac sens -17.
`CCCNC(=O)CCn1cc(-c2ccc(OC)cc2)nc1-c1ccncc1` gave RecA splice inh -1.4 and Mtb bLac sens -9.
CN1CCC2(CC1)C(C#N)=C(N)NC(S)=C2C#N was read as RecA splice inh -1.7&-13, Mtb growth 7%&-5%, YopH inh -8, Arbovirus anti 6&3 and Mtb bLac sens -3&-3.
`O=C(NNC(=O)C12CC3CC(CC(C3)C1)C2)c1csc(N2CCOCC2)n1` gave RecA splice inh -0.8 and Mtb bLac sens -2.
For CCOc1ccc(C(C)=O)cc1N1C(=O)C2C3C=CC(C3=C(C)C)C2C1=O (stereo unspecified) the results were RecA splice inh -0.1, Mtb growth 4%, YopH inh -47, Arbovirus anti 0 and Mtb bLac sens -6.
Screening COc1cc(Cl)ccc1OCc1cc(C(=O)N(C)CCc2cnn(C)c2)no1 returned RecA splice inh 2.2 and Mtb bLac sens -5.
Screening O=C(O)CSCC(=O)N1CCc2c([nH]c3ccccc23)C1C(F)(F)F (stereo unspecified) returned RecA splice inh -0.2 and Mtb bLac sens 2.
`O=S(=O)(c1ccc(F)cc1)N1CCN(S(=O)(=O)c2cccs2)CC1` gave RecA splice inh -4.5 and Mtb bLac sens 0.
CCN(C(=O)COC(=O)c1cc(C)n(-c2ccc(F)cc2)c1C)C1CCS(=O)(=O)C1 (stereo unspecified) was read as Mtb growth -12%, YopH inh 11 and Arbovirus anti -5.
For Cc1ccc(C(N)=O)cc1S(=O)(=O)Nc1cccc(C)c1C the results were RecA splice inh 2.3, Mtb growth -12%, YopH inh 18, Arbovirus anti 2 and Mtb bLac sens -5.
COc1ccc(-n2c(CN3CCN(Cc4ccccc4)CC3)nc3ccc([N+](=O)[O-])cc3c2=O)c(OC)c1 was read as RecA splice inh 1.5, Mtb growth 1%, Arbovirus anti 7 and Mtb bLac sens -10.
Cc1c(Cl)cccc1NC(=O)CNC(=O)c1ccc(F)cc1 was read as RecA splice inh 0.5, Mtb growth 1%, YopH inh -18, Arbovirus anti -5 and Mtb bLac sens 5.
For C#CCSc1nc(=O)c2cccnc2n1-c1ccc(C)cc1 the results were RecA splice inh 3.2, Mtb growth -1% and Mtb bLac sens 0.
Screening O=C1OCCC1Sc1nc(-c2ccccc2)cs1 (stereo unspecified) returned RecA splice inh -10, Mtb growth 2%, YopH inh -11, Arbovirus anti 4 and Mtb bLac sens -7.
O=S(=O)(c1ccc(OCC(O)CN2CCCCC2)cc1)N1CCOCC1 (stereo unspecified) was read as RecA splice inh -1.3, Mtb growth -5%, YopH inh 15, Arbovirus anti 0 and Mtb bLac sens 11.
N#Cc1c(Nc2ccccc2)sc(C(=O)c2ccc(F)cc2)c1N was read as RecA splice inh -1.7, Mtb growth 9%, YopH inh -32, Arbovirus anti 5 and Mtb bLac sens -3.
`COc1ccc(N2CCN(S(=O)(=O)CCNC(=O)/C=C/c3ccccc3)CC2)cc1` gave RecA splice inh -0.8 and Mtb bLac sens -5.
`O=C(Cc1cccc2ccccc12)Nc1cc(C(=O)O)cc(C(=O)O)c1` gave RecA splice inh 0.6 and Mtb bLac sens 0.

Ordered by heavy-atom count (rising): 9 of the compounds above
Screening O=C1OCCC1Sc1nc(-c2ccccc2)cs1 (stereo unspecified) returned RecA splice inh -10, Mtb growth 2%, YopH inh -11, Arbovirus anti 4 and Mtb bLac sens -7.
Cc1c(Cl)cccc1NC(=O)CNC(=O)c1ccc(F)cc1 was read as RecA splice inh 0.5, Mtb growth 1%, YopH inh -18, Arbovirus anti -5 and Mtb bLac sens 5.
N#Cc1c(Nc2ccccc2)sc(C(=O)c2ccc(F)cc2)c1N was read as RecA splice inh -1.7, Mtb growth 9%, YopH inh -32, Arbovirus anti 5 and Mtb bLac sens -3.
Screening O=C(O)CSCC(=O)N1CCc2c([nH]c3ccccc23)C1C(F)(F)F (stereo unspecified) returned RecA splice inh -0.2 and Mtb bLac sens 2.
`O=C(Cc1cccc2ccccc12)Nc1cc(C(=O)O)cc(C(=O)O)c1` gave RecA splice inh 0.6 and Mtb bLac sens 0.
For CCOc1ccc(C(C)=O)cc1N1C(=O)C2C3C=CC(C3=C(C)C)C2C1=O (stereo unspecified) the results were RecA splice inh -0.1, Mtb growth 4%, YopH inh -47, Arbovirus anti 0 and Mtb bLac sens -6.
Screening COc1cc(Cl)ccc1OCc1cc(C(=O)N(C)CCc2cnn(C)c2)no1 returned RecA splice inh 2.2 and Mtb bLac sens -5.
`COc1ccc(N2CCN(S(=O)(=O)CCNC(=O)/C=C/c3ccccc3)CC2)cc1` gave RecA splice inh -0.8 and Mtb bLac sens -5.
COc1ccc(-n2c(CN3CCN(Cc4ccccc4)CC3)nc3ccc([N+](=O)[O-])cc3c2=O)c(OC)c1 was read as RecA splice inh 1.5, Mtb growth 1%, Arbovirus anti 7 and Mtb bLac sens -10.

Other structures follow:
CC(C)Nc1nc(SC(C)C(=O)Nc2ccccc2)nc(N(C)C)n1 (stereo unspecified) was read as RecA splice inh 4.2, Mtb growth 3%, Arbovirus anti 9 and Mtb bLac sens 4.
Screening C=C(C)[C@H]1CC=C(C)/C(=N/NC(=O)CNc2ccccc2OC)C1 returned RecA splice inh 2.6, Mtb growth -8%, YopH inh 7, Arbovirus anti 0 and Mtb bLac sens 4.
For O=C(CC(c1ccccc1)c1cc(Cl)ccc1O)NCCCN1CCOCC1 (stereo unspecified) the results were RecA splice inh -0.1 and Mtb bLac sens -13.
O=C(Nc1ccc(S(=O)(=O)Nc2ccccc2)cc1)c1ccc(CN2CCOCC2)cc1 was read as RecA splice inh -0.2, Mtb growth 1%, Arbovirus anti -9 and Mtb bLac sens -2.
Screening O=C(c1ccco1)N1CCN(c2ncnc3scc(-c4ccccc4)c23)CC1 returned RecA splice inh -1.0, Mtb growth 8%, YopH inh 0, Arbovirus anti 2 and Mtb bLac sens -13.
`CC1CCC(NC(=O)CCS(=O)(=O)c2ccc3c(c2)NC(=O)C(C)S3)CC1` (stereo unspecified) gave RecA splice inh -0.7 and Mtb bLac sens -1.
CCC(C(=O)NCCC(C)C)N(Cc1ccccc1Cl)C(=O)c1snc(C(N)=O)c1N (stereo unspecified) was read as RecA splice inh 2.3 and Mtb bLac sens 0.
Screening O=C(CSCc1ccc(F)cc1)NCc1ccco1 returned RecA splice inh 2.9, Mtb growth 2%, YopH inh -25, Arbovirus anti -1 and Mtb bLac sens 2.
Screening NC(N)=NC1=NC(=O)C(Cc2ccccc2)S1 (stereo unspecified) returned RecA splice inh 3.4, Mtb growth -2%, Arbovirus anti -2 and Mtb bLac sens -6.
For Cc1ccc(F)cc1NC(=O)CCNC(=O)c1ccc([N+](=O)[O-])cc1 the results were RecA splice inh 0.6 and Mtb bLac sens 4.
For C=CCSc1nc(-c2ccc3c(c2)OCO3)cc(C(F)(F)F)c1C#N the results were RecA splice inh -6.8, YopH inh -16, Arbovirus anti -3 and Mtb bLac sens 2.
For CCOc1cc(/C=N\NC(=O)c2ccc(C)nc2)cc([N+](=O)[O-])c1O the results were RecA splice inh 0.9, Mtb growth 1%, YopH inh -39, Arbovirus anti -1 and Mtb bLac sens 37.

Reprinted at random: 2 records from the list.
For CCOc1cc(/C=N\NC(=O)c2ccc(C)nc2)cc([N+](=O)[O-])c1O the results were RecA splice inh 0.9, Mtb growth 1%, YopH inh -39, Arbovirus anti -1 and Mtb bLac sens 37.
CCC(C(=O)NCCC(C)C)N(Cc1ccccc1Cl)C(=O)c1snc(C(N)=O)c1N (stereo unspecified) was read as RecA splice inh 2.3 and Mtb bLac sens 0.

(listing goes on)
`Cc1cccc2sc(NC(=O)CCNS(=O)(=O)c3cccs3)nc12` gave RecA splice inh 7.3, Mtb growth -1%, YopH inh -47, Arbovirus anti 5 and Mtb bLac sens 71.
For CC12C(=O)N(NC(=O)c3ccncc3)C(=O)C1C1C=CC2C1 (stereo unspecified) the results were RecA splice inh -0.9, Mtb growth 11%, YopH inh -7, Arbovirus anti 1 and Mtb bLac sens -6.
O=C(Nc1ccc(Cl)cc1)C1c2cccc[n+]2CC(=O)N1Cc1ccc2c(c1)OCO2 (stereo unspecified) was read as RecA splice inh 36*, Mtb growth 3%, Arbovirus anti -8 and Mtb bLac sens -3.
Screening Cc1nc(NCC2CCCO2)c2nnn(Cc3c(F)cccc3Cl)c2n1 (stereo unspecified) returned RecA splice inh -3.2, Mtb growth 2%, Arbovirus anti 11 and Mtb bLac sens -2.
Screening Fc1cccc(C2NCCc3[nH]cnc32)c1 (stereo unspecified) returned RecA splice inh -1.3, Mtb growth 4%, YopH inh -13, Arbovirus anti 5 and Mtb bLac sens -7.
O=C(CC12CC3CC(CC(C3)C1)C2)NCc1ccncc1 was read as RecA splice inh -3.7, Mtb growth -4%, YopH inh -9, Arbovirus anti 17 and Mtb bLac sens -2.
`CCCCNc1nc(N)nc(-c2cc(Cl)ccc2O)n1` gave RecA splice inh -4.3, Mtb growth 54%, YopH inh -31, Arbovirus anti -2 and Mtb bLac sens 23.
O=C1/C(=C/c2ccc(O)cc2)SC(=S)N1Cc1cccnc1 was read as RecA splice inh 5.4, Mtb growth 2%, YopH inh -30, Arbovirus anti -6 and Mtb bLac sens -2.
Screening CCN1CCN(C(=O)C23CCC(C)(C(=O)C2Br)C3(C)C)CC1 (stereo unspecified) returned RecA splice inh 14, Mtb growth -4% and Mtb bLac sens -6.
For COC(=O)C1CSC(C(=O)OC)N1C(=O)Nc1ccccc1 (stereo unspecified) the results were RecA splice inh 0.4, Mtb growth -4%, YopH inh -29, Arbovirus anti 2 and Mtb bLac sens 6.
CC(Sc1ccc(Cl)cc1)C(=O)NCc1cccnc1 (stereo unspecified) was read as RecA splice inh 15, Mtb growth 5%, YopH inh -3, Arbovirus anti -5 and Mtb bLac sens 0.

Source: PubChem (several laboratories)
